High-throughput results: PubChem, several laboratories
WNV NS2B-NS3 inh: WNV NS2B-NS3 proteinase inhibition. P06935. z-score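 (tested at a level between 10 and 100 µM)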. hit rate 0.18% among 65,000. AID 577. WNV NS2B-NS3 protease, fluorogenic substrate Ex360/Em465; active compounds read low;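 active = z-score at -3 or under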;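 note: score is relative to mean and spread of the compound wells of a plate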
Target sequence (P06935 1371-1501 limits assumed): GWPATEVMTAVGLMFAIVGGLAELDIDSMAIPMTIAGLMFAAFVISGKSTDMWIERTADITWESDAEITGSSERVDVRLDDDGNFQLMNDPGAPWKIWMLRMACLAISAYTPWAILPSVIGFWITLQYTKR
Target sequence (P06935 1502-1679 limits assumed): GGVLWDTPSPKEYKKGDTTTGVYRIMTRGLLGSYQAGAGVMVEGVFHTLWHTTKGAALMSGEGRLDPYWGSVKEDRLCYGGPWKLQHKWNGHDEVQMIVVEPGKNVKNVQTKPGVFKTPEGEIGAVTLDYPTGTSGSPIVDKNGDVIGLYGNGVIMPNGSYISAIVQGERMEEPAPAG
Hsc70: small molecules displacing fluorescent ligand from Hsc70 – biochemical, fluorescence polarization, primary screen (AID 568); 83,000 tested, under 10 active; Hsc70 fluorescence polarization, probe displacement; higher % means a stronger effect; strong numbers were not always called active; displacement, % at 20 µM; hits with a dose series show IC50 in µM;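 active = displacement above 50% without optical interference and an IC50 on retest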;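 note: ATPase domain with a fluorescein-tagged ATP probe; 0% = vehicle and 100% = excess ADP; read after one hour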
MT1-MMP reporter: inhibitors of MT1-MMP promoter transcription, cell-based, luciferase reporter, luminescence (AID 618); MT1-MMP promoter luciferase reporter cells, luminescence; calls from a first round at 10 µM; hits with a dose series show EC50 in µM; hit rate 0.62% among 87,000;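 active = over half of the reporter light lost at 10 µM or EC50 under 50 µM; inactive = the rest and hits that failed the dose series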;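 note: actives suppress MT1-MMP promoter-driven transcription so potencies describe inhibitors; HT1080 fibrosarcoma cells; overnight exposure; toxic or luciferase-blocking compounds were not removed from the actives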
Active calls of the source: *; i = inactive; nt = no result given. Only part of the results is shown; the hit share may differ from the screen's.

SMILES	WNV NS2B-NS3 inh	Hsc70	MT1-MMP reporter
Cn1c(=O)c2c(nc(CN3CCC(C(N)=O)CC3)n2CCCc2ccccc2)n(C)c1=O	-0.81	1.9%	i
Cc1ccc(S(=O)(=O)N(C)CC(=O)Nc2ccccc2)cc1	nt	-4.8%	i
COc1cccc(NC(=O)N2CCCC2C(=O)NCC(C)C)c1 (stereo unspecified)	-1.15	-0.8%	i
Cc1cc(N2CCN(c3ccccc3)CC2)nc(-c2ccccc2)n1	0.15	-0.8%	i
CC(C)CCNC(=O)C(c1ccco1)N(CC1CCCO1)C(=O)Cn1nnc2ccccc21 (stereo unspecified)	-1.38	-5.1%	i
Brc1ccc(NCc2nnc3n2CCCCC3)cc1	1.53	-3.9%	i
Cn1c(=O)c2c(ncn2CC(=O)N2CCN(c3ccc(F)cc3)CC2)n(C)c1=O	0.16	2.0%	i
Cc1ccc2cc(CN(CC3CCCO3)C(=O)C(C)C)c(=O)[nH]c2c1 (stereo unspecified)	0.9	-6.6%	i
CCOC(=O)/C=C1\SCC(=O)N1Cc1nnc(-c2ccccc2Br)o1	-1.38	-24.8%	i
CCOC(=O)c1cccc(NC(=O)C2CCCN(S(=O)(=O)c3c(C)nn(C)c3C)C2)c1 (stereo unspecified)	-0.5	-0.4%	i
CCOC(=O)C1=CN(C)C=C(C(=O)OCC)C1c1ccsc1	0.53	-6.1%	i
CC(C)(C)SCCNC(=O)CSc1ccccc1	1.02	-2.6%	i
Nn1c(SCC(=O)N2CCN(S(=O)(=O)c3ccc(Cl)cc3)CC2)nnc1-c1cccs1	nt	3.5%	i
COc1ccccc1CN1CCCC(C(=O)N(C)Cc2ccccc2)C1 (stereo unspecified)	-0.56	-2.0%	i
CC1(C)CC(C2N3CC4(C)CN2CC(C)(C3)C4=O)CCO1 (stereo unspecified)	0.6	-7.2%	i
CN1C(=O)c2ccc(NC(=O)c3c(F)c(F)c(F)c(F)c3F)cc2C1=O	0.87	-4.5%	i
CCOCCn1c(SCCCc2ccccc2)nc2c1c(=O)[nH]c(=O)n2C	-0.02	0.3%	i
COc1cccc(CNC(=O)C2CCN(S(=O)(=O)c3ccc(F)cc3)CC2)c1	-0.39	-0.6%	i
COC(=O)C1=C(C)Nc2nnnn2C1c1ccc(Cl)cc1Cl (stereo unspecified)	0.6	-2.2%	i
CC1(C)Cc2c(sc3ncn4nc(-c5ccco5)nc4c23)CO1	0.02	4.1%	i
CCCCN(C(=O)Cc1cccs1)c1nnc(-c2cccnc2)s1	nt	2.3%	i
Nc1nonc1-c1nc2ccccc2n1CC(=O)N1CCN(c2ccc(F)cc2)CC1	0.46	0.7%	i
CCCCn1c(-c2nn(C)c(C)c2Cl)n[nH]c1=S	nt	5.1%	i
Cc1ccc(C2(C(F)(F)F)NC(=O)N3CCCN=C3S2)cc1 (stereo unspecified)	-0.28	0.8%	i
CCC1CCCN1Cn1cnc2c([nH]c3ccccc32)c1=O (stereo unspecified)	1.43	-7.3%	i
COc1ccc2c(c1)c(C(C)=O)c(C)n2-c1ccccc1	nt	-3.2%	i
CC(c1ccco1)N(C(=O)c1ccc(S(=O)(=O)N2CCCCC2)cc1)c1ccccn1 (stereo unspecified)	-0.7	-2.3%	i
OCCN1CCN(c2nc(-c3ccccc3)nc3c2oc2ccccc23)CC1	1.33	-1.6%	i
CN1CCN(c2nc(-c3cccs3)cc(C(F)(F)F)n2)CC1	0.27	-1.7%	i
COC(=O)c1ccccc1NC(=O)CSc1nc(-c2ccco2)cc(C(F)(F)F)n1	1.47	-4.5%	i
CCOc1ccc(NC(=O)c2ccco2)cc1	-0.08	2.4%	i
COc1ccc(N2C(=O)C3CCCN3C2c2cccc(F)c2)cc1Cl (stereo unspecified)	-1.07	-9.1%	i
CCc1nnc(NC(=O)C2CCN(c3cnccn3)CC2)s1	-0.27	-6.8%	i
CCOC(=O)Cn1c(=O)c2c(nc(N3CCCCC3)n2C)n(C)c1=O	1.16	2.2%	i
CNC(=O)C(Sc1ccccc1)c1ccccc1 (stereo unspecified)	1.65	5.3%	i
Cc1ccc(CNC(=O)CCCn2c(=O)[nH]c3ccccc3c2=O)cc1	-0.84	-4.9%	i
CCOC(=O)C1=C(c2ccccc2)O/C(=C(\C(=O)OC)C(F)(F)F)S1	nt	-0.4%	i
O=C(CSc1nc2ccc(NC(=O)CSc3nnnn3Cc3ccccc3)cc2s1)Nc1ccccc1	nt	-0.8%	i
CCOc1cc(OCC)cc(C(=O)Nc2cccnc2)c1	0.28	0.7%	i
COC(=O)CC1=NC(=O)CS1	-0.03	-2.0%	i

Complete entries as entered above.
Record of `CCc1nnc(NC(=O)C2CCN(c3cnccn3)CC2)s1` = WNV NS2B-NS3 inh = -0.27; Hsc70 = -6.8%; MT1-MMP reporter = i
Record of `CCOc1cc(OCC)cc(C(=O)Nc2cccnc2)c1` = WNV NS2B-NS3 inh = 0.28; Hsc70 = 0.7%; MT1-MMP reporter = i

Next part:
SMILES	WNV NS2B-NS3 inh	Hsc70	MT1-MMP reporter
O=C(OCC(=O)N1CCN(C(=O)c2ccco2)CC1)c1cc(-c2cccc(Br)c2)nc2ccccc12	nt	-7.1%	i
Cc1cc(C(=O)Nc2ccon2)cs1	0.03	-0.2%	i
CCOc1ccc2c(c1)N(C(=O)CN1C(=O)CCC1=O)C(C)(C)C=C2C	-0.96	-3.6%	i
CC(=O)Nc1ccc(C(=O)Cn2nnc3ccccc3c2=O)cc1	0.14	-10.3%	i
CCCCCNC(=O)c1cc(S(=O)(=O)N2CCCCC2)ccc1F	-0.89	3.0%	i
Cc1ccc(C)c(NC2=NS(=O)(=O)c3ccccc32)c1	-0.53	2.8%	i
COC(=O)c1c(NS(=O)(=O)c2ccc(C)cc2)sc2c1CCC(C)C2 (stereo unspecified)	nt	-6.1%	i
CCCCOCCCNC(=O)COc1ccccc1	-0.8	4.7%	i
Cc1c(O)nc(SC2CC(=O)N(c3ccccc3)C2=O)[nH]c1=O (stereo unspecified)	-1.13	-0.3%	i
CCOC(=O)CN1CC23C=CC(O2)C(C(=O)O)C3C1=O (stereo unspecified)	0.38	-0.3%	i

Sorted by molecular weight (descending): 4 of the compounds above.
SMILES	WNV NS2B-NS3 inh	Hsc70	MT1-MMP reporter
CCCCCNC(=O)c1cc(S(=O)(=O)N2CCCCC2)ccc1F	-0.89	3.0%	i
Cc1ccc(C)c(NC2=NS(=O)(=O)c3ccccc32)c1	-0.53	2.8%	i
CCOC(=O)CN1CC23C=CC(O2)C(C(=O)O)C3C1=O (stereo unspecified)	0.38	-0.3%	i
Cc1cc(C(=O)Nc2ccon2)cs1	0.03	-0.2%	i

(next part)
SMILES	WNV NS2B-NS3 inh	Hsc70	MT1-MMP reporter
Cc1ccccc1OCC(=O)NCC1CCCO1 (stereo unspecified)	0.57	1.8%	i
CCOc1ccccc1NC(=O)CSc1nnc(-c2cnccn2)n1C	nt	-4.7%	i
COc1ccc(-c2cc(C(=O)N3CCN(C(c4ccccc4)c4ccccc4)CC3)no2)cc1	0.86	-1.3%	i
O=C1NC(=S)N/C1=C/c1cc([N+](=O)[O-])ccc1O	nt	-6.4%	i
C(=N\n1cnnc1)/C1CCCCC1	-0.26	-2.2%	i
Cc1nc2ccc(S(=O)(=O)NCC(=O)N3CCC(N4CCCCC4)CC3)cc2s1	-0.000795	-5.4%	i
COCCCN=C(c1ccco1)n1c(=S)nc(-c2ccco2)n(CCCOC)c1=S	-0.36	2.1%	i
CC(C)Cc1nc2n[nH]c(N)c2c2c1CCCC2	nt	3.9%	i
Cc1ccc(-c2ccc(CCC(=O)O)n2-c2ccc(O)cc2)cc1	nt	-3.3%	i
COc1ccc(CNC(=O)c2cnn3c(C(F)F)cc(C)nc23)cc1	nt	-4.6%	i
CCC1(CC)C(=O)N(C)C(=O)NC1=Nc1ccccc1	-1.64	-10.3%	i
Cn1c(=O)[nH]c(=O)c2c1nc(N1CCCCCC1)n2CCCSc1nc2ccccc2o1	0.08	4.9%	i
CCOC(=O)c1c(NC(=O)CSc2nnc(CNc3ccc(F)cc3)o2)sc(C)c1C	-0.77	-0.6%	i
CCOC(=O)Cn1c(=O)oc2cc(S(=O)(=O)N3CCCC(C(=O)OCC)C3)ccc21 (stereo unspecified)	1.53	-6.8%	i
Cc1ccc(C(=O)N2CCSCC2)cc1	nt	1.1%	i
O=c1cnnc(NCc2ccccc2)[nH]1	-0.44	3.2%	i
O=C(NCc1ccccc1)C1CCN(S(=O)(=O)N2CCCCCC2)CC1	1.44	-4.9%	i
CC(=O)C1=C(O)C(=O)N(CCC(=O)O)C1c1ccccc1Cl (stereo unspecified)	nt	3.2%	i
CC1(C)Cc2c(C#N)c(SCC(=O)c3ccccc3)nc(N3CCOCC3)c2CS1	-1.34	-19.3%	i
O=C(Cc1ccc(S(=O)(=O)N2CCOCC2)s1)Nc1nc2c(s1)CCCC2	nt	-1.3%	i
CCNC(=O)c1c(C)[nH]c(C(=O)OCC)c1C	0.58	0.7%	i
Cc1onc(-c2ccccc2)c1C(=O)N1CCOCC1	-0.29	4.1%	i
COc1ccc(N(C(=O)c2cccc(OC)c2OC)C2C=CS(=O)(=O)C2)c(OC)c1 (stereo unspecified)	-0.99	-0.5%	i
CC(=O)c1cc2c(cc1NC(=O)CN1CCC(Cc3ccccc3)CC1)OCO2	nt	3.1%	i
O=C(Cc1ccccc1F)Nc1ccc(Cl)nc1	nt	2.3%	i
Cc1cc(SCC(=O)c2ccccc2)nc(C)n1	-0.66	-0.9%	i
c1ccc2sc(NC3=NCN(C4CCCCC4)CN3)nc2c1	nt	2.7%	i
COCCN(C(=O)CCCC(=O)Nc1ccccn1)C(C(=O)NC1CCCC1)c1ccc(C)cc1 (stereo unspecified)	0.8	-0.2%	i
CS(=O)(=O)N(CC(=O)Nc1ccc2c(c1)OCO2)Cc1ccc(Cl)cc1	-0.84	-3.1%	i
O=c1[nH]c(CN2CCN(C/C=C/c3ccccc3)CC2)nc2ccccc12	1.07	-1.3%	i
Cc1ccc2nc(Nc3ccc4[nH]c(=O)[nH]c4c3)c(-n3nc(C)cc3C)nc2c1	-1.38	-26.5%	i
COc1ccc(OC)c(N(CC(=O)Nc2ccc(NC(C)=O)cc2)S(C)(=O)=O)c1	-0.59	5.4%	i
CCOC(=O)CNC(=O)CSc1ncnc2c1cnn2-c1ccc(C)cc1	0.33	5.3%	28µM*
Cc1ccc(-c2nc(-c3ccccc3)no2)cc1	nt	3.2%	2.87µM*
CCOC(=O)N1CCN(C(=O)CSc2nc3ccccc3c(=O)n2-c2ccccc2)CC1	0.52	-1.1%	i
COc1cc(C2NC(=O)NC(C)=C2C(=O)OC2CCCCC2)cc(Br)c1O (stereo unspecified)	-0.13	-0.4%	i
COCCNC(=O)c1cc(-c2ccc(OC)c(OC)c2)on1	-0.16	5.7%	i
N#C/C=C1/NC(=O)c2ccccc2S1	-0.82	-4.8%	i
Cc1cc(Cl)ccc1OCC(=O)Nc1ccccc1CO	-0.49	0.2%	i
CCCc1cc(=O)oc2c(CN3CCCC3)c(O)ccc12	3.6	3.4%	i
CC(C)(C)n1ncc2c(=O)n(CC(=O)c3ccc(Cl)cc3)cnc21	0.72	-2.1%	i
CCOC(=O)c1ccc(S(=O)(=O)N2CCN(CC3CC=CCC3)CC2)cc1 (stereo unspecified)	-0.87	0.6%	i
Cn1c(CCCCCN)nc2ccccc21	0.4	-6.9%	i
COc1cc(Nc2ccccc2Cl)c([N+](=O)[O-])nc1[N+](=O)[O-]	nt	3.9%	i
Cc1ccc2[nH]cc(C(=O)CN3CCN(C)CC3)c2c1	nt	0.8%	i
O=C(CCn1nc(-c2ccc(Cl)cc2)ccc1=O)N1CCOCC1	0.79	0.9%	i
CC(C)(C)n1nc2c(c1NC(=O)COc1ccc(Cl)cc1)CSC2	0.2	1.8%	i
Cc1cccc(OCC(=O)Nc2cc(C)c(C)cc2O)c1	0.48	-0.2%	i
COc1cc(C(=O)N2CCN(c3ccc([N+](=O)[O-])cc3)CC2)ccc1OCc1c(C)noc1C	nt	0.6%	i
CCOCCCN(Cc1cc2cc(C)cc(C)c2[nH]c1=O)C(=O)N(CC)CC	-0.73	-1.1%	i

(cont.)
SMILES	WNV NS2B-NS3 inh	Hsc70	MT1-MMP reporter
O=C(Cc1c(F)cccc1Cl)c1ccc(O)cc1O	-0.6	42.8%	i
CCOC(=O)N1CCN(c2c(NCCN(C)Cc3ccccc3)c(=O)c2=O)CC1	-0.95	-0.8%	i
COc1ccccc1CNC(=O)C1CCN(Cc2nc(-c3ccc(Cl)cc3)oc2C)CC1	0.4	-1.1%	i
Cc1cc(N2CCC(C)CC2)nc2ccc(N3C(=O)CCC3=O)cc12	0.8	-0.7%	i
Cc1cc(NS(=O)(=O)c2ccc(Br)s2)no1	2.07	-2.4%	i
O=C(OCCN1CCCCC1)c1cc2ccccc2o1	-0.38	3.0%	i
COc1cccc(C(=O)N2CCN(C3CCC(c4ccccc4)CC3)CC2)c1OC (stereo unspecified)	-0.92	-8.6%	i
COc1ccccc1N(CC(N)=O)S(=O)(=O)c1ccc(C)cc1	-1.45	8.8%	i
Cc1noc(C)c1C(=O)NCc1ccccc1	nt	2.2%	i
CCn1c(O)c(N=NC2=NC(=O)CS2)c2cc(C)ccc21	nt	-3.2%	i
Cn1c(=O)c2c(nc(CN3CCN(c4ccccc4)CC3)n2Cc2c(F)cccc2Cl)n(C)c1=O	-1.02	-6.8%	i
